Tb PFK block: T. brucei PFK enzyme inhibition; O15648; T. brucei PFK, ADP-Glo luminescence; Potency, µM (highest dose often 57.5 µM), for the others: at the highest dose activity, negative = inhibition, most hits filed as inhibitors; 330,000 compounds, 0.17% hits; AID 485367;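 further: potency means the concentration at half of the fitted maximal effect; 0% = uninhibited 1x PFK enzyme wells and -100% = no-enzyme wells; nearly all actives have a fitted effect of over 60% in size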
Target sequence (O15648 whole entry, looked up): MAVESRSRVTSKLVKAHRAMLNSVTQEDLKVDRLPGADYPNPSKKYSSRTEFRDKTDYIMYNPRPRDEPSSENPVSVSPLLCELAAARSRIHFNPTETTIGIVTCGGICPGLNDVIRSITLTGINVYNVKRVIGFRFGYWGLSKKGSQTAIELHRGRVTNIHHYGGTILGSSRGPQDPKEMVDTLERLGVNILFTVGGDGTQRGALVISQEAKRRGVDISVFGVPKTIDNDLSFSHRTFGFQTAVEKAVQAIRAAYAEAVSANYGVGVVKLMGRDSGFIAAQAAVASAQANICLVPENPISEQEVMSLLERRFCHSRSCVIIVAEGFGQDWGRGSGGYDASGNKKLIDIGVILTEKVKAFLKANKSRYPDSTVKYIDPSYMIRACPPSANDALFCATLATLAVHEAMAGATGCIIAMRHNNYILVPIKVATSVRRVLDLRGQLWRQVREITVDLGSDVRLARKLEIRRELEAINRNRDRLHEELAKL
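Luminescent ADP detection (ADP-Glo, two-step: ATP depletion then ADP-to-ATP conversion for luciferase) reported PFK activity after 45 min room-temperature reaction of 1.25 nM enzyme with 0.5 mM F6P and 0.1 mM ATP at pH 8.0.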
USP2a block: blocks human ubiquitin-specific protease USP2a. O75604. USP2 core, Ub-CHOP2 coupled fluorogenic reporter, 485/531. Potency, µM (titrated, usually from 38.3 µM), for inactives: top-dose activity change, negative = inhibition, most hits filed as inhibitors. 330,000 compounds, 0.01% hits;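 further: potency means the concentration at half of the fitted maximal effect; plate controls were DMSO wells for no effect and full inhibition by NEM control for full effect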
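USP2 core (10nM final) preincubated 30min RT with compound in 20mM Tris-HCl pH 8.0, 2mM CaCl2, 2mM beta-mercaptoethanol, 0.05% CHAPS; 25nM Ub-CHOP2 plus 25nM reporter substrate added, fluorescence (Ex485/Em531) read after 60min.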
TCR act: activates T cell receptor signaling; Potency, µM (top dose mostly 9.22 µM), for the others: at the highest dose activation of IL-2 secretion, hits mostly activators; 330,000 tested, under 10 active; primary human leukocytes, anti-CD3, IL-2 HTRF, 48 h; further: % of control where 0% means no effect
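1) Mix primary human leukocytes, a-CD3 beads and compound. 2) Incubate 48 hr. 3) Add HTRF IL-2 reagents (a-IL-2-K, a-IL-2-d2).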
uPA generation: inhibitors of cell surface uPA generation. Potency, µM (series often up to 38.3 µM), without a hit: top-dose activity change, negative = inhibition, usual class: inhibitors. 330,000 compounds, 0.31% hits. cell surface uPA generation assay, qHTS; active means well fitted inhibition curve with a large enough effect; inconclusive means small, poorly fitted or top-dose-only effect; inactive means no such curve, though single readings can be large or run the other way; tested in mouse RAW 264.7 cells; further: potency means the concentration at half of the fitted maximal effect; on the % scale 0 is the no-effect control and ±100 the full control effect; nearly all actives have a fitted effect of over 55% in size
Mito fusion yeast: inhibitors of mitochondrial division or activators of mitochondrial fusion | AID 485298 | 320,000 compounds, 0.23% hits | Potency, µM (titrated, usually from 46.1 µM), inactives show at the top dose growth rescue (activation), hits mostly activators | S. cerevisiae fusion-defective mutant growth rescue, CellTiterGlo 48 h;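 further: potency means the concentration at half of the fitted maximal effect; % of control where 0% means no effect; nearly all actives have a fitted effect of over 45% in size; temperature-sensitive fusion mutants such as fzo1-1 at 37 °C on non-fermentable ethanol glycerol medium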
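Yeast fusion mutant, YPEG (non-fermentable carbon), compound, 48 h at 37C non-permissive; CellTiterGlo added, 10 min RT, luminescence read. Rescued growth = division inhibition.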
BCR signal inh: chronic active BCR signaling inhibition; 340,000 compounds, 0.05% hits; ABC-DLBCL IkBa-CBG/CBR reporter, luminescence ratio, 4 h; Potency, µM (series often up to 46.1 µM), without a hit: top-dose ratio change, negative = lower green/red ratio, usual class: inhibitors; active means well fitted inhibition curve with a large enough effect in the signal ratio, with a control signal flat, not every such curve was filed as active; inconclusive means small, poorly fitted or top-dose-only effect, or effect the other way, or a change in a side signal; the % refers to the signal ratio;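 further: potency means the concentration at half of the fitted maximal effect; plate controls were basal doxycycline-induced cells for no effect and cells given 10 µM MG132 for full effect; MG132 reads +100%, hits lower the ratio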
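TMD8 human ABC-DLBCL cells with doxycycline-inducible IκBα–green luciferase fusion and unfused red luciferase, in 0.5% FBS medium; compounds up to 46 uM, 4 h at 37C. Green/red luminescence ratio, filter-overlap corrected, fitted to concentration-response curves.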
ELG1 repair inh: ELG1-dependent DNA repair inhibition; Potency, µM (highest dose often 46.1 µM), without a hit: top-dose activity change, negative = inhibition, usual class: inhibitors; HEK293T ELG1-luciferase reporter, luminescence, 16 h; DNA damage induced by 5-fluorouridine; 330,000 compounds, 2.3% hits; AID 504467; further: potency means the concentration at half of the fitted maximal effect; on the % scale 0 is the no-effect control and ±100 the full control effect; nearly all actives have a fitted effect of over 55% in size
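Cells (2,000 per well) received 5-fluorouridine plus test compound or DMSO and were incubated 16 hr at 37 °C, 5% CO2. Luciferase activity was read by luminescence 30 min after ONE-Glo addition; signal suppression marked inhibition of damage-induced ELG1 function.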
PTAP TSG101 blk: blocks PTAP/TSG101 interaction to inhibit HIV-1 budding; Fluorescence polarization, FITC-PTAP peptide / Tsg101 binding; Potency, µM (top dose mostly 115 µM), without a hit: at the top dose activity change, negative = inhibition, usual class: inhibitors; 340,000 tested, under 10 active; Q99816; active means well fitted inhibition curve with a large enough effect in the main read-out, with a control signal flat, not every such curve was filed as active; inconclusive means small, poorly fitted or top-dose-only effect, or effect the other way, or a change in a side signal; inactive means no such curve, though single readings can be large or run the other way; further: potency means the concentration at half of the fitted maximal effect; % of control where 0% means no effect
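Steps: Tsg101 binding domain dispensed (10 uM final), compounds pinned in DMSO, FITC-labeled PTAP-motif peptide added (50 nM final); after 20 min binding at room temperature, polarization measured.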
Active calls of the source: *; ? = inconclusive; / = not tested or not shown; & = joins results of further samples; [ ] = remark or other dose. Unless noted, the call rests on the fitted dose curve; in most records, active means well fitted curve in the direction sought with a large enough effect; inconclusive means small, poorly fitted or top-dose-only effect, or another doubt; inactive means no such curve, though single readings can be large; an effect the other way counts as inactive or inconclusive. Some of the compounds tested; the hit share may differ from the screen's.

SMILES | Tb PFK block | USP2a block | TCR act | uPA generation | Mito fusion yeast | BCR signal inh | ELG1 repair inh | PTAP TSG101 blk
COc1cccc(C(=O)OCC(=O)Nc2nnc(-c3ccccc3)o2)c1 | 9% | 1% | 1% | -3% | 20% | ? | 2% | -1%
Nc1ccn([C@@H]2O[C@H](CO)[C@@H](O)[C@H]2O)c(=O)n1 | / | / | -2% | -3% | / | / | / | 0%
CN(C)CCC(c1ccc(Br)cc1)c1ccccn1 (stereo not drawn) | ? | 3%&0% | -3%&-2%&0% | 4%&-17%&19% | -3%&-4%&-11% | ? | -3%&3% | 1%&1%&2%
COc1ccc(C(=O)NC(=S)NNC(=O)c2cnccn2)cc1OC | -6% | 0% | 7%[46.1 µM] | ? | -1% | 7% | -23% | 2%
Cc1ccc(NC(=O)CSc2ccc(-c3ccccn3)nn2)cc1 | -10% | 0% | -2% | -1% | -10% | 1% | ? | 0%
O=c1cc(C(F)(F)F)nc(SCc2cccc3ccccc23)[nH]1 | 0% | 3% | 9% | 18% | ? | ? | -1% | -2%
O=C(CSc1ccc(-c2ccccn2)nn1)Nc1cccc(F)c1 | -4% | 2% | 2% | -6% | -12% | -2% | 30% | -4%
CCCS(=O)(=O)c1c(S(=O)(=O)CCC)c2c(C)cccn2c1C(=O)N/N=C/c1cc(O)cc(O)c1 | 1% | -4% | 3% | 11µM* | 7% | ? | -15% | -5%
COc1ccccc1/C=C/C(=O)Oc1cccc2cccnc12 | 0% | 0% | -4% | -2% | 0% | ? | -14% | 0%
C[N+]1(C)CCC(OC(=O)C(O)(c2ccccc2)C2CCCC2)C1 (stereo not drawn) | / | / | -1% | -14% | / | / | / | -1%
CCCCc1nc(Cl)c(CO)n1Cc1ccc(-c2ccccc2-c2nnn[nH]2)cc1 | / | / | 2% | 18% | / | / | / | -2%
CC(C)(C)NC[C@H](O)COc1nsnc1N1CCOCC1 | 1%&5% | 3%&-2% | -6%&-10%&9% | -15%&0%&8% | -12%&-4%&-2% | -6%&-14% | -3%&17% | -1%&-3%&1%
O=C(Oc1cccc2cccnc12)c1cccs1 | 21% | -2% | 13% | -1% | 4% | ? | -25% | -2%
O=C(CCc1ccccc1)NNC(=O)c1ccccn1 | -2% | 4% | -7% | ? | 6% | ? | ? | -6%
Cc1cccc(OCC(=O)NC(=S)NNC(=O)c2ccncc2)c1 | -4% | 2% | / | 2% | 2% | ? | -6% | -1%
O=C(CSc1ccc(-c2ccccn2)nn1)N1CCCCC1 | -4% | 2% | -3% | -1% | 4% | ? | ? | 0%
O=C(O)CC(O)(CC(=O)O)C(=O)O | / | / | -3% | -8% | / | / | / | 1%
C[C@H](NC(=O)c1[nH]cnc1C(=O)Nc1nccs1)c1ccccc1 | -2% | -2% | 2% | 8% | -10% | 3% | 16% | -3%
OC(CCN1CCCCC1)(c1ccccc1)C1CC2C=CC1C2 (stereo not drawn) | / | / | / | / | -33%[inhibitor] | / | / | /
CN(C)CC[C@@H](c1ccc(Br)cc1)c1ccccn1 | / | / | -15% | -25% | -6% | / | / | -1%
COc1ccc(C(=O)NC(=S)NNC(=O)c2cnccn2)cc1 | 3% | 0% | 0%[46.1 µM] | -1% | -3% | 6% | ? | -4%
O=C(/C=C/c1ccccc1)NC(=S)NNC(=O)c1cnccn1 | 3% | -2% | 1% | 0% | -11% | ? | 20% | -1%
CC(C)NCC(O)c1ccc(O)c(O)c1 (stereo not drawn) | 1% | 1% | 10% | ? | -6%&-1% | -1% | 19% | -4%
Cc1cc(=O)[nH]c(N/N=C/c2ccccn2)n1 | 6% | -1% | -5% | -19% | -9% | -7% | ? | 0%
Cc1ccccc1NC(=O)CSc1nnc(-c2ccccn2)o1 | 0% | -1% | 5% | -5% | -1% | ? | 0% | -4%
COc1ccc(C(=O)NCc2cccnc2)cc1C(=O)NCc1cccnc1 | -1% | 3% | -7% | 1% | -3%&-5% | 3% | 18% | -1%
Cc1cc(NC(=O)CSc2nnc(CNC(=O)c3ccccc3)o2)no1 | -2% | 3% | 1% | -7% | 4% | 2% | 9% | 3%
CC1=C(C(=O)O)N2C(=O)[C@@H](NC(=O)[C@H](N)c3ccccc3)[C@H]2SC1 | 18% | 3% | / | / | 1% | 8% | / | /
CCCCCCCCc1c(O)nc(-n2[nH]c(C)c(CCO)c2=O)[nH]c1=O | -3% | 0% | -2% | 1% | -7% | 1% | -1% | -2%
O=C(CSc1nnc(-c2ccccn2)o1)Nc1ccc(F)cc1 | 1% | 2% | 6% | -12% | -3% | ? | ? | -5%
Cc1cnc(NC(=O)c2ccccn2)s1 | -15% | -2% | 3% | -18% | -1% | ? | ? | 1%

Three of the compounds above, as tab-separated lines:
SMILES	Tb PFK block	USP2a block	TCR act	uPA generation	Mito fusion yeast	BCR signal inh	ELG1 repair inh	PTAP TSG101 blk
COc1ccc(C(=O)NCc2cccnc2)cc1C(=O)NCc1cccnc1	-1%	3%	-7%	1%	-3%&-5%	3%	18%	-1%
Cc1cc(NC(=O)CSc2nnc(CNC(=O)c3ccccc3)o2)no1	-2%	3%	1%	-7%	4%	2%	9%	3%
CC1=C(C(=O)O)N2C(=O)[C@@H](NC(=O)[C@H](N)c3ccccc3)[C@H]2SC1	18%	3%	/	/	1%	8%	/	/

Record cards (already shown).
COc1ccc(C(=O)NCc2cccnc2)cc1C(=O)NCc1cccnc1 in the list: Tb PFK block: -1%; USP2a block: 3%; TCR act: -7%; uPA generation: 1%; Mito fusion yeast: -3%&-5%; BCR signal inh: 3%; ELG1 repair inh: 18%; PTAP TSG101 blk: -1%
CN(C)CC[C@@H](c1ccc(Br)cc1)c1ccccn1 in the list: Tb PFK block: /; USP2a block: /; TCR act: -15%; uPA generation: -25%; Mito fusion yeast: -6%; BCR signal inh: /; ELG1 repair inh: /; PTAP TSG101 blk: -1%

Bioassay records (PubChem)
